# Assay outcomes from PubChem BioAssay.
# N370S GC = inhibits or activates N370S mutant glucocerebrosidase; P04062; N370S GC spleen homogenate, 4MU-glucoside fluorescence; Potency, µM (titrated, usually from 59.4 µM), for the others: at the highest dose activity change, negative = inhibition, hits mostly inhibitors; actives 0.092% (n = 330,000); active means well fitted inhibition curve with a large enough effect; inconclusive means small, poorly fitted or top-dose-only effect, or effect the other way, or another doubt; inactive means no such curve, though single readings can be large or run the other way;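 further: 0% = full enzyme activity and -100% = no enzyme basal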
# Active calls of the source: *; u = inconclusive; & = joins results of further samples; [ ] = another dose, or the depositor's remark. Potency means the concentration at half of the fitted maximal effect.
canonical_smiles	N370S GC
O=C(Cn1cnc2ccccc21)Nc1cc(C(F)(F)F)ccc1N1CCOCC1	24%
Cc1cc(C(F)F)nn1CC(=O)NCc1ccccc1F	9%
Cc1ccccc1OCCCc1c(C)n[nH]c1C	-1%
c1ccc2c(c1)Cc1cc(CN3CCOCC3)ccc1-2	-12%
S=C1NC(C23CC4CC(CC(C4)C2)C3)=CC(c2ccc3c(c2)OCO3)N1 (stereo not given)	-3%
CC(C)CCN=Cc1c(O)n(-c2ccccc2)c(=O)c2ccccc12	-6%[12.8 µM]
COc1ccc(CN2C(=O)C(=O)N(CC(N)=O)C2=O)cc1	-14%
Cc1cccc(C)c1NC(=S)N(Cc1cccnc1)Cc1ccccc1Cl	-23%
O=C(c1ccc(Cl)c([N+](=O)[O-])c1)N(Cc1ccco1)C1CCS(=O)(=O)C1 (stereo not given)	-25%
COc1ccc(C(=O)c2c[nH]c(C(=O)NCC3CCCO3)c2)cc1 (stereo not given)	3%
CC(=O)/C=C(/C)NC(Cc1c[nH]c2ccccc12)C(=O)O (stereo not given)	1%&3%
CC(C)C1=CC(=NS(=O)(=O)c2cccc([N+](=O)[O-])c2)C=C(C(C)C)C1=O	10%

# Overlap with the part before: 2 entries, then new ones.
canonical_smiles	N370S GC
CC(=O)/C=C(/C)NC(Cc1c[nH]c2ccccc12)C(=O)O (stereo not given)	1%&3%
CC(C)C1=CC(=NS(=O)(=O)c2cccc([N+](=O)[O-])c2)C=C(C(C)C)C1=O	10%
CC1CCN(C(=S)c2cccc([N+](=O)[O-])c2)CC1	-20%
COC(=O)c1cccc(NC(=O)c2ccco2)c1	2%
CC(C)(C)NCC(O)(c1ccc(Cl)cc1)c1ccc(Cl)cc1	-5%
CC(C)c1ccc(C(C(=O)NC2CCCCC2)N(C(=O)c2ccccn2)c2cccnc2)cc1 (stereo not given)	-1%
Cc1ccc(C(=O)O/N=C(\N)c2ccccn2)cc1	-5%
Cc1cccc(CNc2ncncc2-c2cccc(C#N)c2)c1	1%
CCc1ccccc1NC(=O)NC(C)c1ccc2c(c1)OCO2 (stereo not given)	1%
COC1CCCN(Cc2c(C(=O)N3CCc4ccccc4C3)nc3ccc(Cl)cn23)C1 (stereo not given)	-3%
CCN1CCN(C(c2cc(OC)c(OC)c(OC)c2)c2nnnn2C(C)C)CC1 (stereo not given)	0%
CCn1c(NC(=O)c2ccccc2)nc2ccccc21	12%
C/C(=N\Nc1nc2ccccc2[nH]1)c1ccc(C)o1	-9%
CC(=O)NS(=O)(=O)c1ccc(NC(=O)C2c3ccccc3Oc3ccccc32)cc1	-13%

# (more compounds)
canonical_smiles	N370S GC
Cn1c(=O)cc(SCC(=O)NCCC2=CCCCC2)c2cc(Cl)ccc21	-8%
O=c1[nH]c2ccc(NC(=S)Nc3ccc(F)cc3)cc2[nH]1	-3%
O/N=C/c1cn(-c2ccc(Cl)cc2)nn1	3%
CN(C)S(=O)(=O)N1CCC(CO)(Cc2cccc(C(F)(F)F)c2)CC1	-22%
O=C1O[C@H]([C@@H](O)CO)C(O)=C1O	-15%&0%
Cc1c(Cl)cccc1NC(=O)CCCn1nc([N+](=O)[O-])cc1C	-4%
Brc1ccc(/C=N/Nc2ccc3ccccc3n2)cc1	11%
O=C(CCOc1ccccc1)Nc1ccccc1[N+](=O)[O-]	-7%
CCOC(=O)c1sc(NC(=O)CCN2CCN(CC)CC2)c(C(=O)OCC)c1C	-13%
C/C(CC(=O)NCc1ccco1)=N\NC(=O)Cc1ccc(Cl)cc1	-3%
Oc1ccc(CN2CCC(Cc3ccccc3)CC2)c2cccnc12	4%
COc1ccc(S(=O)(=O)NCCOc2ccccc2)cc1F	-8%

# The results go on:
canonical_smiles	N370S GC
COc1ccccc1C(=O)N1CCNC(=O)C1CC(=O)Nc1ccc(Cl)cc1 (stereo not given)	1%
Cc1ccc2cccc(OCC(=O)N3CCc4ccccc43)c2n1	1%
COc1ccc(O)c(CN2CCC(n3nccc3NC(=O)CCOc3ccccc3)CC2)c1	-5%
CCCC12C(=O)C(C)(C(c3ccccc3)=C1c1ccccc1)C1C(=O)N(c3ccc(C)cc3)C(=O)C12 (stereo not given)	8%
O=C(NC1CCCCC1)c1cc(S(=O)(=O)N2CCCC2)ccc1Cl	-2%
COc1ccc(N2CCN(C(=O)Cn3cnc4c3c(=O)n(C)c(=O)n4C)CC2)cc1	5%
CC1CN(C(=O)Nc2ccc(Br)cc2Cl)CC(C)O1 (stereo not given)	-6%
Cc1nn(C)c(=O)n1-c1ccc(OCc2ccccc2)cc1	-2%
COCCSc1ccccc1C(=O)N1CCOCC1	5%
CCO/C=C1/C(=O)N(C(C)=O)c2ccccc21	7%
COc1ccc(S(=O)(=O)N2CCCCC2)cc1NC(=O)c1ccc(=O)[nH]c1	-9%
O=C(CSc1nnc(-c2ccco2)o1)Nc1ccccc1Cl	6%

# (continued)
canonical_smiles	N370S GC
Clc1ccc(-c2csc(N/N=C/c3ccc4c(c3)OCO4)n2)cc1	2%
COc1cc2[nH]c(=O)n(Cc3ccccc3Cl)c(=O)c2cc1OC	5%
Cc1cc(C)cc(NC(=O)CCC(=O)Nc2cc(C)on2)c1	7%
O=C(CC(=O)N/N=C/c1c(F)cccc1Cl)NCc1ccccc1	6%
CC(C)CC(=O)NC(=S)Nc1ccccc1F	4%
CCOC(=O)CSC1=C(C#N)C(c2ccc(C)o2)CC(=O)N1 (stereo not given)	12%
CCOc1ccc(Cl)cc1S(=O)(=O)N1CCC(C(=O)N2CCCC2)CC1	-2%
CC(=O)N1CCN(c2ccc([N+](=O)[O-])cc2C#N)CC1	-10%
Cn1c(=O)c2c(ncn2CC(=O)N2CCN(c3ccccc3)CC2)n(C)c1=O	15%
O=C(NCC1CCCCC1)c1cccc(S(=O)(=O)NCc2cccnc2)c1	-3%
CC(C)CCCC(C)C1CCC2C3CC=C4CC(O)CCC4(C)C3CCC12C (stereo not given)	18%
CCOC(=O)N1CCN(S(=O)(=O)c2cccs2)CC1	2%

# Later entries
canonical_smiles	N370S GC
O=C(Oc1ccc(=O)n(-c2ccccc2)n1)c1ccc(Cl)cc1	-14%
CC(=O)c1ccc(NC(=S)NCCCn2ccnc2)cc1	4%
CCOC(=O)Cc1nnc(NC(=O)CSc2ncc(-c3ccccc3)nn2)s1	10%
CCn1c(SCC(=O)N(C)CCC#N)nc2cc(S(=O)(=O)N3CCOCC3)ccc21	-13%
CN(c1ccccc1C(=O)O)S(=O)(=O)c1ccc2c3c(cccc13)C(=O)N2	0%
O=C(Nc1ccccc1[N+](=O)[O-])c1cccnc1Cl	-10%
O=C(CCc1ccccc1)N/N=C/c1cccc(O)c1	-6%
CCCc1c(C(=O)N/N=C/c2c(OC)ccc3ccccc23)nnn1-c1nonc1N	21%
C=CCNC(=O)c1c(Cl)nc(C)c([N+](=O)[O-])c1C	-2%
O=C(O)CCCCCn1c(SCC(=O)N2CCCC2)nc2ccsc2c1=O	0%
Cn1c(=O)cc(-c2ccccc2)c2ccccc21	-13%
Cc1ccc(SCc2c(C(=O)N/N=C/c3ccccc3)nnn2-c2nonc2N)cc1	2%

# Going on with the list.
canonical_smiles	N370S GC
Cn1nccc1C(=O)Nc1nnc(C2CC2)s1	-15%
Cc1ccc(S(=O)(=O)N2CCCCC2)cc1NC(=O)Cn1ccc(C(F)(F)F)n1	-7%
Cc1cc(C)nc(SCc2nc3ccccc3n2C)n1	1%
CCC1CCc2sc(C(=O)N3CCCN(C)CC3)cc2C1 (stereo not given)	-2%
Cc1ccc(CN2CCN(CCCc3ccccc3)CC2CCO)cc1 (stereo not given)	-2%
C=CCn1c(=S)[nH]c2cc(C(=O)Nc3ccc(F)cc3)ccc2c1=O	1%
N#Cc1ccc(OCC(=O)N/N=C/C2CC=CCC2)cc1 (stereo not given)	5%
COc1ccc(OC)c(CN2CCCC(CO)C2)c1 (stereo not given)	-3%
CCCCCN(C(=O)CCC(=O)OCC(=O)NCc1ccc(OC)cc1)c1c(N)n(CCCC)c(=O)[nH]c1=O	4%
O=c1[nH]c(CSc2ncnc3sccc23)nc2cc(C(F)(F)F)ccc12	21%
CCOC(=O)c1c(NC(=O)CCC(=O)O)sc2c1CC(C)(C)OC2	23%
O=C(N/N=C/c1ccc([N+](=O)[O-])o1)c1cc(-c2cccc(Br)c2)nc2ccccc12	3%

# (listing goes on)
canonical_smiles	N370S GC
CCC1=Nc2cc(C(=O)NCCN3CCCC3)ccc2Sc2ccc(C)cc21	-24%
CCc1nnc2c(N(C)S(=O)(=O)c3ccc(C)cc3)nc3ccccc3n12	-9%
COc1cc(OC)cc(C(=O)NCc2nc(-c3ccccc3)no2)c1	14%
O=C(NC(CSSCC(NC(=O)c1ccccc1)C(=O)O)C(=O)O)c1ccccc1 (stereo not given)	0%
COc1ccccc1NC(=S)NC(=O)c1ccc(-c2ccc(Cl)cc2)o1	-15%
CCC1(c2ccccc2)NC(=O)N(CC(=O)Nc2cc(Cl)ccc2N2CCOCC2)C1=O (stereo not given)	-2%
Cc1ccc(-n2c(C3CC3c3ccc(Cl)cc3)n[nH]c2=S)cc1 (stereo not given)	12%
Cc1ccc(CNC(=O)c2ccc(N3CCC4(CC3)CC(c3ccccc3)=NO4)c(NC(=O)c3ccc(Cl)c([N+](=O)[O-])c3)c2)cc1	-5%
CCc1cc(Cn2nc(-c3ccccc3)cc2C(=O)NCc2cccc(C(F)(F)F)c2)on1	-6%
Brc1ccc(-c2nn3c(-c4ccccn4)nnc3s2)o1	4%
CC1CCC(C(=O)NC(C(=O)NCCCN2CCOCC2)C(C)C)CC1 (stereo not given)	15%
O=C(NCc1ccccc1)c1c(F)c(F)c(F)c(F)c1F	-4%

# The listing continues.
canonical_smiles	N370S GC
Cc1nn(C)cc1C1C(C#N)=C(N)N(c2ccc(F)c([N+](=O)[O-])c2)C2=C1C(=O)CCC2 (stereo not given)	-7%
CCOC(=O)N1CCN(c2c(NCc3cccs3)c(=O)c2=O)CC1	1%
CCOC(=O)C1CCN(C(=O)c2cc3cc4ccc(C)cc4nc3o2)CC1	5%
Cc1ccc(C(=O)Oc2ccc([N+](=O)[O-])cc2)cc1S(=O)(=O)N1CCCCCC1	-2%
COc1ccccc1CC(=O)Nc1ccc(F)cc1F	8%
Cc1c(NC(=S)/C=C2\N(C)c3ccccc3C2(C)C)c(=O)n(-c2ccccc2)n1C	-4%
CCCCN1C(N)=NC[C@@H]1Cc1ccc(O)cc1	-7%
Cc1nn(-c2ccccc2)c(C)c1C(=O)Nc1ccc(N2CCOCC2)cc1	12%
COc1ccc(CC2(CO)CCN(Cc3cccnc3)CC2)cc1	7%
COc1ccc(OCCN2C(=O)c3ccccc3C2=O)cc1	2%
O=C1NCCCC1C(=O)N1CCCCC1 (stereo not given)	15%
CCOc1ccc(C2C(C(=O)c3ccco3)=C(O)C(=O)N2CCCn2ccnc2)cc1OC (stereo not given)	-5%

# Continued:
canonical_smiles	N370S GC
COc1ccc(C2c3c(ccc4ccccc34)Oc3ncn4nc(CO/N=C/c5ccccc5)nc4c32)cc1 (stereo not given)	1%
C/C(=N\NC(=O)CNc1cccc(C)c1)c1ccc(Br)s1	2%
COc1ccc(CCNC(=O)c2c([S-])n(-c3ccc(C)cc3)c3cccc[n+]23)cc1	-2%
CC1(C)Cc2c(sc(NC(=O)C(=O)NCC3CCCO3)c2C(=O)O)CO1 (stereo not given)	-1%
COc1cccc(-c2cc(C(=O)N3CCN(S(=O)(=O)c4ccc(Br)cc4)CC3)[nH]n2)c1	4%
Cc1ccc(C(=O)NC2CCN(S(=O)(=O)c3ccccc3)CC2)cc1	5%
Nc1nnc(SCc2ccc(F)cc2)s1	-14%
CCOC(=O)c1ccccc1NC(=O)/C(C)=C/C(=O)O	-3%
COc1ccc(CCNC(=O)CN(CCc2ccccc2)S(C)(=O)=O)cc1OC	4%
Cc1sc2nc(CSC(C)C(=O)NC3(C#N)CCCCC3)[nH]c(=O)c2c1C (stereo not given)	0%
Cc1cccc(-c2n[nH]c(=S)n2Cc2ccccc2)c1	2%
O=C(Nc1nc(-c2cccs2)cs1)c1ccco1	16%

# Given as labelled records: entries from further up.
CCOC(=O)C1CCN(C(=O)c2cc3cc4ccc(C)cc4nc3o2)CC1
  N370S GC = 5%
Cc1ccc(C(=O)Oc2ccc([N+](=O)[O-])cc2)cc1S(=O)(=O)N1CCCCCC1
  N370S GC = -2%
COc1ccccc1CC(=O)Nc1ccc(F)cc1F
  N370S GC = 8%

# New compounds follow
canonical_smiles	N370S GC
O=C(CSc1nc2ccccc2[nH]1)c1ccco1	5%[2.35 µM]
CC(C)(C)NC(=O)c1ccc2c(c1)N(CC(=O)N1CCN(c3ccccc3F)CC1)C(=O)C(C)(C)O2	-5%
O=C(NCCCn1ccnc1)C(=O)NCC1OCCCN1S(=O)(=O)c1ccc(F)cc1 (stereo not given)	1%
CC(=O)OCCNc1cc(N2CCN(C)CC2)c2noc3c2c1C(=O)c1ccccc1-3	-7%
CCN(CC)CCCn1c2c(c(SCC(=O)Nc3ccc4c(c3)OCO4)nc1=O)CCC2	-16%
CC1C(=O)N2CCCc3cc(S(=O)(=O)Nc4ccccc4C(N)=O)cc1c32 (stereo not given)	-21%
COCCCn1c(-c2cccs2)nc2nc3ccccc3nc21	u
CC(C)CCC(C)NC(=O)c1ccc2nccnc2c1 (stereo not given)	3%
CS(=O)(=O)N(CC(=O)NCCC1=CCCCC1)c1cccc([N+](=O)[O-])c1	1%
CCc1cc2c(NCC3CCCO3)ncnc2s1 (stereo not given)	15%
Cn1c(=NC(=O)C2CC2)sc2cccc(F)c21	14%
O=C(N/C=C\c1ccccc1)NCc1ccc(Cl)cc1Cl	-3%
NC(=O)c1ccc(NC(=O)CCC(=O)N2CCN(S(=O)(=O)c3ccc(Cl)cc3)CC2)cc1	-12%
C/C(Cc1ccccc1)=N\NC(=O)CNC(=O)c1cccc(F)c1	-12%

# Not all compounds are listed, and most or all hits are left out here.
